Yeast UUG start = modulators of yeast start codon fidelity, primary screen, whole organism, S. cerevisiae, single point, plate reader; activity score, % at 18.7 µM; S. cerevisiae UUG-firefly luciferase reporter, luminescence/redox ratio; 0.13% of 350,000 active;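 active = replicate mean at a twofold rise or more, about +100% in these data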;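 note: firefly luciferase made from a UUG start codon reports start codon fidelity; reporter light over untreated wells divided by growth signal over untreated wells; some hits fall short of that in this replicate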
Numbers without * were called inactive. A portion of the library; count on the stated rates, not on these rows.

Sample of the layout:
item | SMILES | Yeast UUG start
1 | O=C(C[C@@H]1CC[C@@H]2[C@H](COC[C@@H](O)CN2C(=O)Nc2cccc(F)c2)O1)NCCCN1CCOCC1 | 2
2 | COCC(=O)Nc1ccc2c(c1)C(=O)N(C)C[C@H](OC)[C@H](C)CN(Cc1cncnc1)[C@H](C)CO2 | -1
3 | OC[C@H]1[C@@H](c2ccc(-c3ccncc3)cc2)[C@@H]2CN(Cc3ccccn3)CCCCN12 | -38
4 | CCCC(=O)Nc1ccc2c(c1)C(=O)N(C)[C@@H]1CC[C@@H](CC(=O)Nc3cn(C)nc3C)O[C@H]1CO2 | -3
5 | C[C@H](CO)N1C[C@H](C)[C@H](CN(C)Cc2ccncc2)Oc2c(NS(=O)(=O)c3ccc(Cl)cc3)cccc2C1=O | -11
6 | CO[C@H]1CN(C)C(=O)c2ccc(NC(C)=O)cc2OC[C@@H](C)N(Cc2ccc(F)cc2)C[C@@H]1C | 10
7 | COc1ccc(S(=O)(=O)Nc2ccc3c(c2)C(=O)N([C@H](C)CO)C[C@@H](C)[C@H](CN(C)CC2CCCCC2)O3)cc1 | -3
8 | CO[C@@H]1CN(C)C(=O)c2ccc(NC(C)=O)cc2OC[C@H](C)N(C(=O)CN2CCOCC2)C[C@@H]1C | -16
9 | C[C@@H]1CN([C@H](C)CO)C(=O)c2cccc(NC(=O)c3ccncc3)c2O[C@H]1CN(C)S(=O)(=O)c1cccs1 | -12
10 | COCC(=O)N(C[C@@H]1N[C@@H](CO)[C@H]1c1ccc(C2=CCCC2)cc1)C(C)C | -2

The listing, previewed entries included:
item | SMILES | Yeast UUG start
1 | O=C(C[C@@H]1CC[C@@H]2[C@H](COC[C@@H](O)CN2C(=O)Nc2cccc(F)c2)O1)NCCCN1CCOCC1 | 2
2 | COCC(=O)Nc1ccc2c(c1)C(=O)N(C)C[C@H](OC)[C@H](C)CN(Cc1cncnc1)[C@H](C)CO2 | -1
3 | OC[C@H]1[C@@H](c2ccc(-c3ccncc3)cc2)[C@@H]2CN(Cc3ccccn3)CCCCN12 | -38
4 | CCCC(=O)Nc1ccc2c(c1)C(=O)N(C)[C@@H]1CC[C@@H](CC(=O)Nc3cn(C)nc3C)O[C@H]1CO2 | -3
5 | C[C@H](CO)N1C[C@H](C)[C@H](CN(C)Cc2ccncc2)Oc2c(NS(=O)(=O)c3ccc(Cl)cc3)cccc2C1=O | -11
6 | CO[C@H]1CN(C)C(=O)c2ccc(NC(C)=O)cc2OC[C@@H](C)N(Cc2ccc(F)cc2)C[C@@H]1C | 10
7 | COc1ccc(S(=O)(=O)Nc2ccc3c(c2)C(=O)N([C@H](C)CO)C[C@@H](C)[C@H](CN(C)CC2CCCCC2)O3)cc1 | -3
8 | CO[C@@H]1CN(C)C(=O)c2ccc(NC(C)=O)cc2OC[C@H](C)N(C(=O)CN2CCOCC2)C[C@@H]1C | -16
9 | C[C@@H]1CN([C@H](C)CO)C(=O)c2cccc(NC(=O)c3ccncc3)c2O[C@H]1CN(C)S(=O)(=O)c1cccs1 | -12
10 | COCC(=O)N(C[C@@H]1N[C@@H](CO)[C@H]1c1ccc(C2=CCCC2)cc1)C(C)C | -2
11 | CN1C(=O)c2cc(NC(=O)Nc3ccccc3F)ccc2OC[C@H]2O[C@@H](CC(=O)NCc3ccc(-c4ccccc4)cc3)CC[C@@H]21 | -14
12 | O=C(C[C@@H]1C[C@H]2c3cc(NC(=O)Nc4ccccc4)ccc3O[C@H]2[C@H](CO)O1)NCC1CC1 | 16
13 | CCC(=O)Nc1ccc2c(c1)C(=O)N(C)C[C@@H](OC)[C@@H](C)CN(C(=O)NC(C)C)[C@@H](C)CO2 | -7
14 | CCCNC(=O)N1C[C@@H]2[C@H](c3ccccc31)[C@H](CO)N2Cc1ccc2c(c1)OCO2 | -3
15 | C[C@@H]1CN([C@@H](C)CO)C(=O)c2cccc(NC(=O)Nc3ccc4c(c3)OCO4)c2O[C@H]1CN(C)Cc1ccc(C(=O)Nc2ccccc2N)cc1 | -25
16 | CO[C@@H]1CN(C)C(=O)c2cc(NC(=O)C3CCOCC3)ccc2OC[C@H](C)N(Cc2nccs2)C[C@H]1C | 4
17 | C[C@@H]1CN([C@H](C)CO)C(=O)c2cccc(NC(=O)Nc3cccc4ccccc34)c2O[C@@H]1CN(C)CC1CCCCC1 | 6
18 | C/C=C/c1ccc([C@H]2[C@@H](CO)N[C@@H]2CN(CC)C(=O)CN2CCOCC2)cc1 | 6
19 | CC(C)C#Cc1ccc([C@@H]2[C@@H](CO)N3CCCCN(C(=O)c4ccc5c(c4)OCO5)C[C@H]23)cc1 | 6
20 | O=C(c1ccc(F)cc1)N1CCCCN2[C@@H](CO)[C@H](c3ccc(-c4ccc(F)cc4)cc3)[C@@H]2C1 | -9
21 | COc1ccc(NC(=O)N(C)C[C@H]2Oc3ccc(NC(=O)C4CCCCC4)cc3C(=O)N([C@@H](C)CO)C[C@@H]2C)cc1 | 6
22 | CCCNC(=O)[C@@H]1[C@@H](CO)[C@@H]2Cn3c(ccc(-c4cccc(OC)c4)c3=O)[C@H]1N2CCC | 12
23 | O=C(c1cccc(F)c1)N1C[C@@H]2[C@H](c3ccccc31)[C@H](CO)N2C(=O)C1CCCC1 | -6
24 | O=C(C[C@@H]1CC[C@@H]2[C@H](COC[C@H](O)CN2C(=O)Nc2ccc(Cl)c(Cl)c2)O1)NCc1ccc(Cl)c(Cl)c1 | -28
25 | CO[C@@H]1CN(C)C(=O)c2ccc(NC(C)=O)cc2OC[C@H](C)N(Cc2ccccc2C(=O)O)C[C@H]1C | -14
26 | CCC(=O)N1CC[C@@H]2[C@H]1c1cc(C#Cc3ccccc3F)ccc1N[C@@H]2CO | -8
27 | C[C@@H]1CN([C@@H](C)CO)C(=O)c2cc(NC(=O)CCCN(C)C)ccc2O[C@@H]1CN(C)C | -3
28 | CC(C)C#Cc1ccc2c(c1)O[C@H](CN(C)Cc1cccnc1)[C@H](C)CN([C@@H](C)CO)S2(=O)=O | -6
29 | CCCNC(=O)N1[C@@H](CO)[C@@H](c2ccccc2)[C@@H]1CNC(=O)c1ccccc1 | 11
30 | CCC(=O)Nc1ccc2c(c1)C(=O)N(C)C[C@H](OC)[C@H](C)CN(C(=O)Cc1ccccn1)[C@H](C)CO2 | -2
31 | CO[C@H]1CN(C)C(=O)c2ccc(NC(=O)NC(C)C)cc2OC[C@@H](C)N(Cc2ccccc2)C[C@H]1C | -2
32 | CO[C@@H]1CN(C)C(=O)c2ccc(NC(=O)C3CCOCC3)cc2OC[C@H](C)N(C(C)=O)C[C@@H]1C | 10
33 | COc1ccc(C#Cc2ccc([C@@H]3[C@@H](CO)N4CCCCN(S(=O)(=O)c5cn(C)cn5)C[C@H]34)cc2)cc1 | 0
34 | CS(=O)(=O)Nc1ccc2c(c1)[C@@H]1C[C@@H](CC(=O)NCc3ccccc3F)O[C@@H](CO)[C@@H]1O2 | -5
35 | CC(C)NC(=O)N1[C@H](CN(C)C(=O)c2ccncc2)[C@@H](c2ccccc2)[C@@H]1CO | 7
36 | O=C(Cc1ccccc1)N1C[C@H]2[C@@H](c3ccccc31)[C@H](CO)N2C(=O)Nc1ccc(F)cc1 | 3
37 | CN(C[C@@H]1N[C@H](CO)[C@H]1c1ccc(C2=CCCC2)cc1)C(=O)c1cccc(F)c1 | -16
38 | CO[C@H]1CN(C)C(=O)c2ccc(NC(=O)C3CC3)cc2OC[C@H](C)N(C(=O)c2cccnc2)C[C@@H]1C | 3
39 | COc1ccccc1S(=O)(=O)N1CC[C@@H]2[C@H]1c1cc(-c3ccc(C#N)cc3)ccc1N[C@@H]2CO | 0
40 | COC(=O)[C@H]1[C@H](CO)[C@H]2Cn3c(ccc(-c4cccc(F)c4)c3=O)[C@H]2N1CC1CC1 | 1
41 | CC(C)NC(=O)Nc1cccc2c1O[C@H](CN(C)Cc1ccc(C(F)(F)F)cc1)[C@@H](C)CN([C@@H](C)CO)C2=O | 0
42 | CCS(=O)(=O)N1CCCCN2[C@H](CO)[C@H](c3ccc(-c4cccc(C#N)c4)cc3)[C@@H]2C1 | 7
43 | CN(C)C(=O)c1cccc(-c2ccc3c(c2)[C@@H]2[C@@H](CCN2C(=O)c2cccnc2)[C@@H](CO)N3)c1 | -4
44 | O=C(c1cccnc1)N1CCCCN2[C@H](CO)[C@@H](c3ccc(C#Cc4ccccn4)cc3)[C@@H]2C1 | 2
45 | O=C(Cc1cccnc1)N1[C@H](CO)[C@@H]2c3ccccc3NC[C@@H]21 | -10
46 | Cc1cccc(S(=O)(=O)N2C[C@H](O)COC[C@H]3O[C@@H](CC(=O)NCc4ccc5c(c4)OCO5)CC[C@@H]32)c1 | 6
47 | CN1c2ccc(-c3cccc(C#N)c3)cc2[C@@H]2[C@@H](CCN2C(=O)Nc2cc(F)ccc2F)[C@@H]1CO | -3
48 | O=C(NCC(F)(F)F)[C@H]1[C@H](CO)[C@H]2Cn3c(cccc3=O)[C@@H]1N2CC1CC1 | -21
49 | C[C@@H]1CN([C@H](C)CO)C(=O)c2cc(NS(=O)(=O)c3cn(C)cn3)ccc2O[C@@H]1CN(C)C(=O)Nc1ccc2c(c1)OCO2 | -3
50 | O=C(Nc1ccc2c(c1)[C@H]1C[C@@H](CC(=O)N3CCOCC3)O[C@@H](CO)[C@H]1O2)NC1CCCC1 | -3
51 | CN1C(=O)c2cc(NC(=O)c3cccc(F)c3)ccc2OC[C@@H]2O[C@@H](CC(=O)NCc3ccccc3Cl)CC[C@@H]21 | -7
52 | CO[C@@H]1CN(C)C(=O)c2cc(NC(=O)NC(C)C)ccc2OC[C@H](C)N(Cc2ccc(-c3ccccn3)cc2)C[C@H]1C | 2
53 | O=C(C[C@@H]1CC[C@H]2[C@@H](COC[C@H](O)CN2Cc2ccc(F)cc2)O1)N1CCc2ccccc2C1 | 2
54 | O=C(C1CC1)N1C[C@H]2[C@@H](c3ccccc31)[C@H](CO)N2Cc1ccccc1Cl | -7
55 | C[C@@H]1CN([C@@H](C)CO)C(=O)c2cccc(NS(=O)(=O)c3cn(C)cn3)c2O[C@H]1CN(C)Cc1ccc(-c2ccccc2)cc1 | 0
56 | O=C(C[C@H]1CC[C@@H]2[C@H](COC[C@H](O)CN2Cc2ccccc2)O1)N[C@@H]1CCN(Cc2ccccc2)C1 | 16
57 | CN(C)CC(=O)N1[C@@H]2c3ccc(C4=CCCC4)c(=O)n3C[C@H]1[C@H](CO)[C@H]2C(=O)NCC1CC1 | 25
58 | C/C=C/c1ccc([C@@H]2[C@@H](CO)N3CCCCN(C(=O)Nc4cc(F)ccc4F)C[C@@H]23)cc1 | 24
59 | C[C@@H]1CN([C@H](C)CO)C(=O)c2cc(NS(=O)(=O)c3ccc(Cl)cc3)ccc2O[C@@H]1CN(C)Cc1ccc2c(c1)OCO2 | 11
60 | CN1CCN(C(=O)C[C@H]2CC[C@H]3[C@@H](COC[C@@H](O)CN3S(=O)(=O)c3cccc(Cl)c3)O2)CC1 | -14

The list continues:
item | SMILES | Yeast UUG start
61 | C/C=C/c1ccc([C@@H]2[C@@H](CN(C)C(=O)c3ccccn3)N(C(C)=O)[C@H]2CO)cc1 | 13
62 | C[C@H](CO)N1C[C@H](C)[C@@H](CN(C)C)Oc2ccc(NC(=O)Cc3ccccc3)cc2CC1=O | 1
63 | C[C@H](CO)N1C[C@H](C)[C@@H](CN(C)S(=O)(=O)c2ccc(Cl)cc2)Oc2c(NC(=O)Nc3ccccc3)cccc2C1=O | 4
64 | C[C@@H]1CN([C@@H](C)CO)C(=O)c2cc(NC(=O)CCCCCC(=O)Nc3ccccc3N)ccc2O[C@H]1CN(C)C | -8
65 | CC(C)NC(=O)N(C)C[C@@H]1OCc2ccccc2-c2ccccc2C(=O)N([C@@H](C)CO)C[C@@H]1C | 1
66 | O=C(C[C@H]1CC[C@@H]2[C@H](COC[C@H](O)CN2Cc2cccc(-c3ccncc3)c2)O1)N1CCN(c2ccccc2)CC1 | -2
67 | O=C(NCCc1ccncc1)[C@H]1[C@H](CO)[C@H]2Cn3c(ccc(-c4ccncc4)c3=O)[C@H]2N1C(=O)C1CC1 | -11
68 | O=C(NC1CCCC1)N1CCCCN2[C@H](CO)[C@@H](c3ccc(-c4cccnc4)cc3)[C@H]2C1 | 0
69 | C[C@H](O)C#Cc1ccc([C@H]2[C@@H](CO)N3CCCCN(C(=O)c4ccncc4)C[C@@H]23)cc1 | -3
70 | Cc1noc(C)c1S(=O)(=O)Nc1ccc2c(c1)C(=O)N([C@@H](C)CO)C[C@H](C)[C@H](CN(C)Cc1ccc(C(=O)O)cc1)O2 | -15
71 | CCN(C[C@H]1[C@H](c2ccccc2)[C@@H](CO)N1C(C)=O)C(=O)NC1CCCC1 | 5
72 | C[C@H](CO)N1C[C@H](C)[C@@H](CN(C)C(=O)NC2CCCCC2)Oc2ccc(NS(=O)(=O)c3ccccc3)cc2CC1=O | 6
73 | COc1ccc(-c2ccc3c(c2)[C@@H]2[C@@H](CCN2S(=O)(=O)C2=NC(C)C=N2)[C@H](CO)N3C)cc1 (stereo partly specified) | 5
74 | CC(=O)N(C)C[C@H]1[C@@H](c2ccc(-c3ccc(F)cc3)cc2)[C@@H](CO)N1C(C)=O | -5
75 | CN1c2ccc(C#Cc3cccnc3)cc2[C@@H]2[C@@H](CCN2C(=O)c2cccc(F)c2)[C@@H]1CO | -1
76 | OC[C@@H]1[C@@H](c2ccc(-c3ccccc3F)cc2)[C@@H]2CN(Cc3cncnc3)CCCCN12 | -17
77 | COc1ccccc1-c1ccc([C@H]2[C@@H](CO)N3CCCCN(C(=O)CN4CCOCC4)C[C@H]23)cc1 | -9
78 | C[C@@H]1CN([C@H](C)CO)C(=O)c2cc(NC(=O)Cn3cnnn3)ccc2O[C@H]1CN(C)Cc1ccncc1 | 11
79 | CO[C@@H]1CN(C)C(=O)c2ccc(NS(=O)(=O)CC(F)(F)F)cc2OC[C@@H](C)N(Cc2nccs2)C[C@H]1C | 0
80 | CC(C)NC(=O)N1CCCCN2[C@H](CO)[C@@H](c3ccc(C#C[C@H](C)O)cc3)[C@@H]2C1 | 10
81 | Cc1noc(C)c1S(=O)(=O)Nc1ccc2c(c1)CC(=O)N([C@@H](C)CO)C[C@@H](C)[C@@H](CN(C)C)O2 | -2
82 | C[C@H]1CN([C@@H](C)CO)C(=O)c2cccc(NS(C)(=O)=O)c2O[C@H]1CN(C)S(=O)(=O)c1ccc(Cl)cc1 | 9
83 | C[C@@H]1CN([C@@H](C)CO)C(=O)c2cccc(NC(=O)Nc3ccc(C(F)(F)F)cc3)c2O[C@@H]1CN(C)Cc1ccc2c(c1)OCO2 | 23

Bioassay records from PubChem.
